# VACV mCherry inh – inhibitors of vaccinia virus infection (mCherry reporter signal). Vaccinia virus mCherry reporter infection, fluorescence; about a quarter of the inactives have no number. AID 720579. 0.63% of 310,000 active. Potency, µM (titrated, usually from 36.5 µM), inactives show at the highest dose activity change, negative = inhibition, hits mostly inhibitors; active = well fitted inhibition curve with a large enough effect; inconclusive = small, poorly fitted or top-dose-only effect; inactive = no such curve, though single readings can be large or run the other way; tested in A549 cells; also: nearly all actives have a fitted effect of over 35% in size; inactives centre near -10
# VACV Venus inh – vaccinia inhibition (Venus reporter) | Vaccinia virus Venus reporter expression, fluorescence | Potency, µM (highest dose often 36.5 µM), for the others: at the highest dose activity change, negative = inhibition, usual class: inhibitors | 0.46% of 330,000 active | AID 720580; active means well fitted inhibition curve with a large enough effect; inconclusive means small, poorly fitted or top-dose-only effect; inactive means no such curve, though single readings can be large or run the other way; tested in A549 cells; also: nearly all actives have a fitted effect of over 30% in size; inactives centre near -10
# Numbers without * were called inactive; i = inactive; ? = inconclusive; . = no result given; & = joins results of further samples; [ ] = another dose, or the depositor's remark. % is scaled to controls: 0 for no effect and ±100 for the full control effect; potency is read from the fitted curve at half-maximal effect.
no.	structure	VACV mCherry inh	VACV Venus inh
1	COc1ccccc1CCNC(=O)C1CC(=O)N(c2ccccc2F)C1 (configuration not stated)	-27.5%	-12.4%
2	Cc1cc(Nc2cccc(Cl)c2)nc2ccc(NC(=O)c3cncc(Br)c3)cc12	-3.1%	-22.8%
3	COC(=O)c1cc2n(n1)CCN(Cc1ccc(C)cc1)C2=O	-18.0%	-11.0%
4	CCCCN(CCCC)CCCNC(=O)c1ccc2nc(N3CCCCC3)sc2c1	-25.5%	-17.9%
5	OCCCn1c(-c2ccccc2)csc1=Nc1ccccc1	-18.2%	-18.8%
6	Cn1c(=O)c(C(=O)O)nn(-c2ccccc2)c1=O	0.3%	6.1%
7	Cc1ccc(S(=O)(=O)c2nc(/C=C/c3ccccc3)oc2N2CCC(C(N)=O)CC2)cc1	?	?
8	O=C(CCC1CCCCC1)Nc1ccc(C(=O)c2ccncc2)cc1	i	-11.3%
9	CC(C)CC(=O)NC(=S)Nc1cccc2nsnc12	i	-10.0%
10	Cc1ccc(S(=O)(=O)N2C[C@H]3N(C(=O)OC(C)C)N(C(=O)OC(C)C)C[C@H](OC(=O)Nc4cccs4)[C@@]3(O)C2)cc1	i	-25.8%
11	O=C(NCC1CCC2(CCN(Cc3cccn3-c3ccc(Cl)cn3)CC2)O1)c1ccccc1 (configuration not stated)	-8.9%	-1.3%
12	Cc1cccc(C)c1-n1nnnc1C1c2ccccc2C(=O)N1CCCn1ccnc1 (configuration not stated)	-5.2%	-3.9%
13	Cc1cc(-c2ccc(S(=O)(=O)N3CCN(c4ccc(F)cc4)CC3)s2)on1	-21.6%	-18.6%
14	O=C(O)CC(NC(=O)Cc1ccc(Cl)cc1)c1ccco1 (configuration not stated)	-3.2%	-17.8%
15	COc1ccccc1NC(=O)c1cnn(-c2ccccc2)c1-n1cccc1	-6.3%	-9.0%
16	Cc1ccc(S(=O)(=O)Nc2ccc(S(=O)(=O)N3CCCC3)cc2)cc1	-2.3%	-1.9%
17	CCC1CCCCN1C(=O)COC(=O)c1ccc(S(=O)(=O)N2CCOCC2)cc1 (configuration not stated)	.	-9.5%
18	COC(=O)c1ccc(-c2nc3cc(Cl)c(N)cc3s2)cc1	-27.3%	-11.1%
19	Cc1ccc(-c2cc(C(=O)OC3CCOC3=O)c3ccccc3n2)c(C)c1 (configuration not stated)	-0.4%	-9.0%
20	COc1ccc2c(Sc3ccc(C)cc3)c(C(=O)NCc3ccc(F)cc3)[nH]c2c1	-9.7%	-6.0%
21	COc1ccc(OCC(=O)N/N=C/c2cccn2-c2cccc(C(=O)O)c2)cc1	-3.7%	-5.1%
22	O=C1CC(c2ccccc2F)c2c(c3ccccc3[nH]c2=O)O1 (configuration not stated)	0.9%	9.2%
23	Cc1ccc(C(C)NC(=O)C23CC4CC(CC(C4)C2)C3)cc1 (configuration not stated)	?	?
24	COc1cccc(N2CC(NC(=O)C(=O)c3c(C)[nH]c4ccccc34)CC2=O)c1 (configuration not stated)	-2.8%	-10.0%
25	COc1ccc(NC(=O)Cn2c(SCc3ccc(F)cc3)nc3cccnc32)cc1OC	-24.7%	-19.0%
26	Cc1cc(=O)oc2cc(OCC(=O)OCC(=O)N3CCc4ccccc43)ccc12	.	12.5%
27	Cc1ccc(CNC(=O)c2nnc(Cc3ccc(Cl)cc3)o2)cc1	-4.0%	-10.8%
28	O=C(CCC(=O)N1CC2CCCN2c2ccccc21)NCc1ccc(F)cc1 (configuration not stated)	i	-5.5%
29	COc1ccccc1-n1nnnc1SCC(=O)Nc1ccccc1	i	-12.2%
30	COCCCNC(=O)C1CCN(c2nnc(-n3cccc3CNc3ccc(C)cc3)s2)CC1	-16.7%	-9.4%

# (continued)
no.	structure	VACV mCherry inh	VACV Venus inh
31	C[C@@H]1CCCCO[C@@H](CN(C)S(=O)(=O)c2ccccc2)[C@@H](C)CN([C@H](C)CO)C(=O)c2cc(NS(=O)(=O)c3ccc(F)cc3)ccc2O1	-20.0%	-29.0%
32	O=C(OCc1cccc([N+](=O)[O-])c1)c1ccc[nH]c1=O	-0.3%	-5.2%
33	O=C(c1cccs1)N1CCN(Cc2ccc3c(c2)OCO3)CC1	.	-9.1%
34	Cc1ccc(-c2noc(CSc3nnnn3-c3ccccc3)n2)cc1	i	-9.9%
35	CC(NC(=S)Nc1ccc([N+](=O)[O-])cc1)c1ccncc1 (configuration not stated)	i	-7.0%
36	CN[C@H]1C[C@H]2c3[nH]c4ccc(-c5ccc(OC)cc5)cc4c3CCN2C(=O)[C@H]1[C@H](C)O	?	12.6µM*
37	CC(=O)C1=C(O)C(=O)N(Cc2cccnc2)C1c1ccc(Cl)cc1 (configuration not stated)	-5.8%	-2.3%
38	O=C(CN1CCCC1=O)Nc1ccccc1	.	-19.7%
39	O=c1c2ccccc2nc2c3ccccc3c(NCCO)nn12	16.2%	10.8%
40	CC(Oc1ccc(Cl)cc1)C(=O)OCC(=O)Nc1ncc(Cl)cc1Cl (configuration not stated)	.	-4.5%
41	COC(=O)c1c(-c2cccnc2)csc1NC(=O)c1ccc2c(c1)OCO2	-10.2%	-11.2%
42	COc1ccc(N(CC(=O)NCc2ccccc2Cl)S(=O)(=O)c2c(C)nn(C)c2C)cc1	2.2%	5.0%
43	CCOC(=O)Nc1ccc2c(c1)N(C(=O)CCN1CCN(CCO)CC1)c1ccccc1CC2	-0.7%	-10.2%
44	CCCCNC(=O)CS(=O)Cc1nc(-c2cccc(Cl)c2)oc1C (configuration not stated)	-23.4%	4.0%
45	CSc1cccc(NC(=O)CN2C(=O)COc3ccc(S(=O)(=O)N4CCC(C)CC4)cc32)c1	-1.2%	-1.6%
46	O=C(NCc1cccs1)c1nc2c(nnn2Cc2ccc(F)cc2)c(=O)[nH]1	-8.8%	-1.3%
47	O=C(CNC(=O)OCc1ccccc1)NCC(=O)NC(Cc1c[nH]c2ccccc12)C(=O)O (configuration not stated)	3.8%	-3.6%
48	CC(=O)N/C(=C\c1ccccc1)C(=O)OCC(=O)NC1CCS(=O)(=O)C1 (configuration not stated)	-15.5%	-9.1%
49	NC(=O)C1(N2CCCCC2)CCN(C(=O)c2ccc(-n3cnnn3)cc2)CC1	-9.7%	-5.7%
50	CC(C)(C)CC(C)(C)NC(=O)CSCC(=O)Nc1ccc2ccccc2c1	-2.4%	-29.2%
51	CCc1nnc(NC(=O)CSc2nc3[nH]c(=O)cc(O)c3s2)s1	-13.4%	-2.5%
52	c1ccc(-c2ccc(-c3csc4ncnc(Sc5nnnn5-c5ccccc5)c34)cc2)cc1	?	?
53	COc1ccc2nc(NC(=O)c3ccc(NC(=O)C4CCCO4)cc3)sc2c1 (configuration not stated)	i	-25.4%
54	COC(=O)c1cc(C(=O)OCC(=O)Nc2ccccc2OC(F)F)cc([N+](=O)[O-])c1	-13.3%	5.4%
55	CCOc1ccc(CNCc2c(C(=O)O)n(Cc3ccc(C)cc3)c3cc(C)ccc23)cc1	?	?
56	N=c1c2c(-c3ccccc3)c(-c3ccccc3)n(Cc3ccco3)c2ncn1Cc1ccccc1	-10.2%	-5.6%
57	CCn1c(CNC(=O)c2cccc(C)c2)nc2ccccc21	9.9%	6.6%
58	CCc1cccc(C)c1NC(=O)CCNC(=O)c1cccc(C)c1	-4.5%	-14.7%
59	c1ccc2c(-c3cccc4nccn34)cncc2c1	27.8%	-5.3%
60	O=C(Nc1nc(-c2cccs2)cs1)c1ccc(S(=O)(=O)N2CCCC2)cc1	?	?

# From no. 48 up to 51, copied from above:
no.	structure	VACV mCherry inh	VACV Venus inh
48	CC(=O)N/C(=C\c1ccccc1)C(=O)OCC(=O)NC1CCS(=O)(=O)C1 (configuration not stated)	-15.5%	-9.1%
49	NC(=O)C1(N2CCCCC2)CCN(C(=O)c2ccc(-n3cnnn3)cc2)CC1	-9.7%	-5.7%
50	CC(C)(C)CC(C)(C)NC(=O)CSCC(=O)Nc1ccc2ccccc2c1	-2.4%	-29.2%
51	CCc1nnc(NC(=O)CSc2nc3[nH]c(=O)cc(O)c3s2)s1	-13.4%	-2.5%

# Other entries:
no.	structure	VACV mCherry inh	VACV Venus inh
61	Cn1ncc(N=Cc2ccccc2O)c1C(=O)Nc1ccccc1	.	1.5%
62	CCC(NC(=O)CCc1ccccc1)c1ccccc1 (configuration not stated)	5.3%	-1.7%
63	CCc1nc2ccc(C(=O)NC3CCN(Cc4ccccc4)CC3)cn2c1N(CC)CCOC	28.2%	-10.1%
64	COc1ccc(Nc2cc(C(=O)NCCc3ccc(C)cc3)c3ccccc3n2)c(OC)c1	-11.7%	-0.5%
65	O=C1N/C(=C/c2cccs2)C(=O)N1Cc1ccc(Br)cc1	-1.4%	-5.4%
66	COc1ccc(-c2cc3ccc(O)c(CN4CCOCC4)c3oc2=O)cc1	i[7.34 µM]	-9.7%[7.34 µM]
67	COc1ccc(/C=N/NC(=O)c2cccnc2)cc1CSc1ccccn1	-17.8%	-7.9%
68	Cc1nn2c(=O)cc(COC(=O)c3cccc(NC(=O)c4ccc(C(C)(C)C)cc4)c3)nc2s1	-6.9%	-11.5%
69	O=C(Cc1ccccc1)N/N=C/C=C/c1ccccc1[N+](=O)[O-]	-13.0%	-1.2%
70	CCOc1cc(C(=O)Nc2ccccc2N2CCOCC2)ccc1OCC(=O)N1CCOCC1	i	-13.1%
71	COC(=O)c1ccccc1NC(=O)CSc1nc2ccccc2nc1Cc1ccc(F)cc1	-1.4%	6.6%
72	CCNC(=S)Nc1cccc(NC(=O)c2ccccc2O)c1	i	-10.1%
73	Clc1ccc2c(c1)c1cc(Cl)ccc1n2CN1CCOCC1	?	?
74	Cc1cc(C(=O)COc2nncc3ccccc23)c(C)n1C	-3.6%	-8.9%
75	O=C(Cn1c(=O)n(CC2CCC(C(=O)NCCc3ccccc3)CC2)c(=O)c2ccccc21)Nc1ccccc1 (configuration not stated)	?	?
76	C(=NN=C(NN=Cc1cccs1)NN=Cc1cccs1)c1cccs1	?	-28.1%
77	CCOC(=O)C1CCCN(C(=O)c2cccnc2Oc2ccccc2)CC1 (configuration not stated)	2.4%	-5.2%
78	CCOC(=O)c1c(C)nc(SCC(N)=O)c(C#N)c1-c1ccccc1	-8.6%	-12.4%
79	COc1ccc2c(CC(=O)NCc3ccc4c(c3)OCO4)coc2c1	-10.1%	-11.3%
80	CCN(c1ccccc1)S(=O)(=O)c1nnc(NC(=O)CC(C)C)s1	-29.7%	-11.7%
81	Cc1c(C(=O)Nc2ccc(F)cc2F)oc2c1-c1nn(Cc3c(F)cccc3Cl)cc1CC2	-16.6%	-17.7%
82	COC(=O)C(N)Cc1ccc(Cl)cc1 (configuration not stated)	-0.3%	-8.1%
83	Cc1ccc(NC(=S)NNC(=O)c2nn(C)c(C)c2Cl)cc1	-16.3%	-16.9%
84	O=C(COC(=O)c1cnccn1)NCc1ccccc1Cl	i	-7.2%
85	COc1ccccc1NC(=O)Nc1ccnn1C1CCN(C(=O)C2CCOC2)CC1 (configuration not stated)	i	2.0%
86	CCCCn1c(SCC(=O)NC2CCS(=O)(=O)C2)nnc1-c1ccc(OC)cc1 (configuration not stated)	-11.4%	-12.3%
87	CCCCSc1nnc(-c2ccc(C)cc2)o1	-12.0%	-12.0%
88	CCOc1cc(/C=C/C(=O)OCC(=O)NC2CCS(=O)(=O)C2)ccc1OCc1ccccc1 (configuration not stated)	8.1%	-8.2%
89	CCn1c(SCC(=O)Nc2ccccc2)nc2c(c1=O)SCC2	12.6%	-5.1%
90	CC(=O)c1ccc(Cc2cnc(N)s2)cc1	.	-16.0%

# The list continues.
no.	structure	VACV mCherry inh	VACV Venus inh
91	O=C(O)C1CC=CCC1C(=O)Nc1ccccc1Cl (configuration not stated)	.	?
92	COc1ccccc1NC(=O)C1CCCN1C(=O)NCc1ccccc1 (configuration not stated)	-13.4%	-15.6%
93	O=C(Nc1ccccc1-c1ccccc1)c1cccs1	-0.4%	23.9%
94	CCC(=O)Nc1ccc2c(c1)ncn2C	-17.1%	4.8%
95	CCCCn1cnc2c(c(CC#N)nn2-c2ccccc2)c1=N	-7.2%	-18.4%
96	CCOC(=O)N1CCC(N(C(=O)Nc2ccc(CC)cc2)C(C)CC)CC1 (configuration not stated)	i	-9.0%
97	CC1CCCC(NC(=O)COC(=O)COc2cccc(F)c2)C1C (configuration not stated)	i	0.4%
98	CNC(=O)Cn1c(C)cc(=O)c2cccc(OC)c21	-16.2%	-13.0%
99	CS(=O)(=O)c1ccc(C(=O)OCC(=O)N2CCc3ccccc32)cc1[N+](=O)[O-]	-7.9%	-13.4%
100	O=C1C(Cc2ccccc2)Nc2ncnc(N3CCCCC3)c2N1Cc1ccc(Br)cc1 (configuration not stated)	-27.8%&4.2%	-25.1%&-4.6%
101	Cc1c(NC(=S)NC(=O)c2sc3ccccc3c2Cl)cccc1C(=O)O	i	3.6%
102	Cc1noc(C)c1NC(=O)Nc1ccc2c(c1)CC(=O)N([C@H](C)CO)C[C@@H](C)[C@H](CN(C)CC1CCCCC1)O2	i	-10.9%
103	COc1cc(NC(=O)c2cnc(N)s2)cc(C(=O)Nc2cccc(C(F)(F)F)c2)c1	?	?
104	Clc1ccc2c(c1)-c1c(cnc3cc(-c4ccccc4)nn13)CO2	-4.0%	6.0%
105	CCOc1ccc(NC(=O)N2CCN3CCCCC3C2)cc1 (configuration not stated)	-8.6%	-1.7%
106	COc1ccccc1N1CCN(C(=O)c2nn(C)c3c2CS(=O)(=O)c2ccccc2-3)CC1	-13.3%	-11.9%
107	CCN(CC)S(=O)(=O)c1cccc(-c2nnc(SC(C)C(N)=O)n2CCc2ccccc2)c1 (configuration not stated)	.	?
108	COc1ccc(NC(=O)CN(C)C(=O)CCNC(=O)Nc2ccccc2)cc1	-4.6%	-20.8%
109	O=C1/C(=C\c2cc(Br)cc(Br)c2O)SC(=S)N1Cc1ccccc1	7.6%	55.8%[activator]

# Screening data as filed in PubChem BioAssay.
